D2 PAM = Beta-Arrestin HTS for Positive Allosteric Modulators of the Human D2 Dopamine Receptor: Potentiators; D(2) dopamine receptor (Homo sapiens), P14416; DiscoveRx D2 beta-arrestin cells, luminescence, 90 min; 100% = 57 uM dopamine signal; potentiation, % (concentration not given with the values); 360,000 compounds, 0.23% hits; active = potentiation of 50% or more; inconclusive = 30% to 50%; inactive = 30% or less;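 also: tested on top of an EC20 dose of dopamine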
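D2 cells co-treated with compound plus 50 nM dopamine (EC20) for 90 min at 37 deg C to detect potentiation. Beta-arrestin recruitment was read as enzyme-fragment luminescence after 1 h at ambient temperature. Full response was set by 57 uM dopamine.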
gsp ag = qHTS for Agonist of gsp, the Etiologic Mutation Responsible for Fibrous Dysplasia/McCune-Albright Syndrome: qHTS; gsp mutant cells, cAMP HTRF, 30 min; control for the full effect not named in the record; Potency, µM (series often up to 76.9 µM), inactives show top-dose activation (cAMP increase), most hits filed as activators; 340,000 compounds, 0.13% hits; AID 624287, 2012; active = well fitted activation curve with a large enough effect; inconclusive = small, poorly fitted or top-dose-only effect, or another doubt; inactive = no such curve, though single readings can be large or run the other way; cell line not stated here;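 also: phosphodiesterase inhibitor Ro 20-1724 added with compounds to block cAMP breakdown; potency is read from the fitted curve at half-maximal effect; nearly all actives have a fitted effect of over 60% in size; about a fifth of the inactives were tested at one dose only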
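Cells in DMEM/10% FBS with G418 were pretreated with compounds in DMSO plus […] (300 uM stock) for 30 min at 37C. cAMP was measured by HTRF (cAMP-d2 plus anti-cAMP antibody-K) after 30 min at room temperature.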
gsp antagonist = qHTS for Antagonists of gsp, the Etiologic Mutation Responsible for Fibrous Dysplasia/McCune-Albright Syndrome: qHTS | Potency, µM (top dose mostly 76.9 µM), for inactives: top-dose activity change, negative = inhibition, usual class: inhibitors | gsp-mutant cells, cAMP HTRF, 30 min; control for the full effect not named in the record | AID 624288, 2012 | 340,000 compounds, 0.4% hits; active = falling curve of any shape with a large fitted effect; inconclusive = falling curve, mostly with a smaller effect; inactive = flat or rising curve; cell line not stated here;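 also: intracellular cAMP measured with PDE inhibitor Ro 20-1724 present during compound exposure; potency is read from the fitted curve at half-maximal effect; % is scaled to controls: 0 for no effect and ±100 for the full control effect; nearly all actives have a fitted effect of over 65% in size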
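Cells in G418 medium, seeded 16-24 h, 37C; buffer exchange to DPBS + 1 mM CaCl2, 0.5 mM MgCl2, 0.05% BSA; cpds in DMSO + […] (300 uM stock), 30 min 37C; HTRF cAMP detection.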
ClpP mod = qHTS Assay for Activators of ClpP; 340,000 compounds, 1.9% hits; Potency, µM (top dose mostly 57.5 µM), for the others: top-dose activity change, negative = active; ATP-dependent Clp protease proteolytic subunit (Bacillus subtilis (strain 168)), P80244; purified B. subtilis ClpP, FRET peptide cleavage, 20 min; active = well fitted falling curve with a large enough effect; inconclusive = small, poorly fitted or top-dose-only effect; inactive = no such curve, though single readings can be large or run the other way; also: potency is read from the fitted curve at half-maximal effect; the source files actives as falling curves though it sought activators and does not explain the sign; nearly all actives have a fitted effect of over 65% in size; many hits overshoot -100%
Target sequence (P80244 whole entry, looked up): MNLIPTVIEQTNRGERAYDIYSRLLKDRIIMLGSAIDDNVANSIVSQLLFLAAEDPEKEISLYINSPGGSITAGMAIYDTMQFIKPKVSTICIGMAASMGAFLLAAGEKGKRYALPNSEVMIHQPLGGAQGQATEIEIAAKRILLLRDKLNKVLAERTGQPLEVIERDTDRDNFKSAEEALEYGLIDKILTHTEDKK
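FRET quenching reversal measured ClpP activation: 10 microg/mL B. subtilis ClpP at pH 8 with the FRET-FV decapeptide, read at 430 nm after 320 nm excitation. The 20-min minus 0-min signal was scaled between DMSO/no-enzyme wells and ADEP (5.8 microM final).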
Sfp inh = qHTS Assay for Inhibitors of Bacillus subtilis Sfp phosphopantetheinyl transferase (PPTase); 4'-phosphopantetheinyl transferase ffp (Bacillus subtilis), Q9F4F7; Potency, µM, inactives show max response, negative = inhibition, actives largely listed as inhibitors; Biochemical Sfp PPTase activity, qHTS; 310,000 compounds, 3.5% hits; active = well fitted inhibition curve with a large enough effect; inconclusive = small, poorly fitted or top-dose-only effect, or another doubt; inactive = no such curve, though single readings can be large or run the other way;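 also: the enzyme is Sfp with the accession as filed and its product quenches rhodamine fluorescence; potency is read from the fitted curve at half-maximal effect; 0% = enzyme reaction without inhibitor and -100% = no enzyme wells; top concentration of the series not given in the record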
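With Hepes-Na pH 7.6 buffer containing 10 mM MgCl2, Sfp (15 nM) modified BHQ-2-YbbR (12.5 uM) using rhodamine-CoA (5 uM). Two reads 30 minutes apart at 525/598 nm yielded each well's rate.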
Menin MLL FP FL = qHTS Assay for Inhibitors Targeting the Menin-MLL Interaction in MLL Related Leukemias: Competition With Fluorescein Labeled MLL-derived Peptide | 290,000 tested, under 10 active | AID 1766, 2009 | Fluorescence polarization, fluorescein-MLL peptide displacement from menin | FP activity change, % at 61.4 µM; inconclusive = falling polarisation curve, or a change in total fluorescence; inactive = total fluorescence flat and polarisation flat or rising; no compound was filed as active; the % refers to the polarisation; negative = inhibition;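 also: % of control where 0% means no effect; inhibitors lower the polarisation; unlabelled MLL peptide was the positive control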
TRPV1 potentiator = HTS Assay for Compounds that Act as Potentiators of the Vanilloid Receptor 1; Transient receptor potential cation channel subfamily V member 1 (Homo sapiens), Q8NER1; TRPV1-expressing cells, Fluo-8 calcium influx, capsaicin EC20 potentiation; host cell line not named in the record; control for the full effect not named in the record; 320,000 compounds, 0.02% hits; potentiation, % at 8.33 µM; active means potentiation above 80%; inconclusive means 30% to 80%; inactive means below 30%; also: 0% is about no effect
Target sequence (Q8NER1 whole entry, looked up): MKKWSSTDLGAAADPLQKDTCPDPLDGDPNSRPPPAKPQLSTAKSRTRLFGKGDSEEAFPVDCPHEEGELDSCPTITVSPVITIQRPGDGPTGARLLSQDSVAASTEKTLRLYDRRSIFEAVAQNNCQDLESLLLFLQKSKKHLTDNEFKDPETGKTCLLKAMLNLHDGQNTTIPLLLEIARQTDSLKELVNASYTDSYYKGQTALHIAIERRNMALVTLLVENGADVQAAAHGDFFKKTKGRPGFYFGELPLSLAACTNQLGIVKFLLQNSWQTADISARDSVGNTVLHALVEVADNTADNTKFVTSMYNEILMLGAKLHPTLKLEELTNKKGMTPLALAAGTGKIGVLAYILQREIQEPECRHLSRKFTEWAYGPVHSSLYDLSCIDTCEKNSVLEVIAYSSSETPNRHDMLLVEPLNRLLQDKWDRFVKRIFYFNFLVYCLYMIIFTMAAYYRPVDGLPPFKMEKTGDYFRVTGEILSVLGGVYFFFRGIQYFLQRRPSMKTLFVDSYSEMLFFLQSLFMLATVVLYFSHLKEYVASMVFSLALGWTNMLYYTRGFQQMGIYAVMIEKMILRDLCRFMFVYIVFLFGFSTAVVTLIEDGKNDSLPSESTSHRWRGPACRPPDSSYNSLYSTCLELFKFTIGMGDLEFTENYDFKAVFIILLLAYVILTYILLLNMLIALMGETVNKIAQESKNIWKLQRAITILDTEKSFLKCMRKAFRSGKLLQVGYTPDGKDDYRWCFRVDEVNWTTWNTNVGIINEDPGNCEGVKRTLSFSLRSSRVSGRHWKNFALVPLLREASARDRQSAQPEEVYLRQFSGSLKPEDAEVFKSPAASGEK
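Cells expressing TRPV1 were dye-loaded with Fluo-8 and read kinetically: 10 s baseline, 3 min after compound (agonist portion), then 2 min after EC20 capsaicin (allosteric enhancer portion). Calcium-bound dye fluorescence at 480/520 nm.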
Active calls of the source: *; ? = inconclusive; nt = not tested or not shown; [ ] = remark or other dose.

SMILES | D2 PAM | gsp ag | gsp antagonist | ClpP mod | Sfp inh | Menin MLL FP FL | TRPV1 potentiator
COc1ccc(Cl)cc1NC(=O)/C=C\C(=O)O | -13 | -10% | 6% | 0.6% | 5% | -1.1 | -6
Cc1c(C#N)c(N=CN(C)C)c(C(=O)c2ccccc2)n1-c1ccc(Br)cc1 | -7 | 22% | -1% | -0.2% | 1% | -1.2 | -12
Cc1cc(C)cc(C(=O)NN2CCN(C)CC2)c1 | -8 | -13%[15.4 µM] | 11% | nt | 15% | -1.5 | -13
COCC(C)n1c(SCc2cc(=O)n3cc(C)ccc3n2)nc2ccccc2c1=O (stereo not given) | 0 | 21%[15.4 µM] | 16% | nt | 4% | 1.8 | -5
Cn1c(=O)oc2cc(S(=O)(=O)N3CCN(C(=O)c4ccco4)CC3)ccc21 | -8 | ? | 8% | 2.7% | nt | nt | nt
Cc1ccc(S(=O)(=O)N2CCN(C(=O)CC(C)n3cncn3)CC2)cc1C (stereo not given) | -5 | -8% | 2% | nt | 16% | -3.4 | -4
O=C(NC1CCCC1)c1nc2c(nnn2Cc2ccccc2Cl)c(=O)[nH]1 | 6 | -34%[inhibitor] | ? | 0.4% | -26% | ? | -2
Nc1nn(S(=O)(=O)c2cccc3nsnc23)cc1-c1ccc(Br)cc1 | -2 | 1% | -12% | -0.2% | 15% | 0.4 | ?
CCCCN(Cc1ccco1)S(=O)(=O)c1ccc(-c2ccc(=O)[nH]n2)s1 | -3 | 33% | -4% | -9.6% | ? | nt | 5
Cc1occc(=O)c1OCc1ccccc1 | -2 | -10%[15.4 µM] | 20% | nt | 12% | -3.9 | -9
CCCCN(C(=O)COC(=O)c1nc2nccc(C)n2n1)C1CCS(=O)(=O)C1 (stereo not given) | -3 | ? | 8% | 1.7% | nt | nt | -10
COCc1cc(C)nc2sc(C(=O)N3CCN(c4ccccc4)CC3)c(N)c12 | -6 | 13% | 0% | -3.6% | -10% | -4.2 | nt
CCc1nnc(NC(=O)CSc2nnc(CNC(=O)c3ccccc3)o2)s1 | -15 | -52%[inhibitor] | nt | -1.5% | nt | nt | nt
CCOC(=O)c1nn(-c2cccc(Cl)c2)c2nc(CC(C)C)c(C#N)c(=O)n12 | -9 | -33%[inhibitor] | -25% | 181% | 1% | 1.9 | -42
N#Cc1ccc(Oc2cnccn2)cc1 | -1 | 0%[15.4 µM] | -3% | 0.6% | 8% | -2.5 | -10
O=C1C(NS(=O)(=O)c2cccs2)=C(N2CCN(c3ccccc3)CC2)C(=O)c2ccccc21 | 29 | -57%[inhibitor] | -9% | 0.6% | 0% | -2.3 | -16
O=C(Nc1ccccc1)N1CCCC2CCCCC21 (stereo not given) | -1 | -1% | 6% | -0.6% | -3% | -2.6 | -5
CCOC(=O)C1CCCN(C(=S)Nc2ccc(Nc3ccccc3)cc2)C1 (stereo not given) | -1 | 11%[15.4 µM] | ? | nt | 45µM* | -2.2 | 14
COC1OC(O)C(NC(=O)C(F)(F)F)CC1O (stereo not given) | -9 | 2% | 1% | -1.4% | nt | nt | nt
CC(C)(C)[C@@H]1C=C(C(=O)N2CCOCC2)O[C@H](OCc2ccc(CO)cc2)C1 | -4 | nt | -4% | 1.9% | -3% | -2.2 | -9
CC(C(=O)OCC(=O)c1c(N)n(C)c(=O)n(C)c1=O)N1C(=O)c2ccccc2C1=O (stereo not given) | -6 | 16%[15.4 µM] | -4% | 0.1% | 15% | 7.5 | 8
Cn1c(CCCNC(=O)c2ccccc2)nc2ccccc21 | -46 | -40%[inhibitor] | -7% | 0.3% | 2% | 2.1 | 4
O=c1oc2ccccc2c(Nc2ccc(Cl)cc2)c1[N+](=O)[O-] | -19 | -6% | 28µM* | 0.2% | -29% | 2.4 | 22
Cc1ccc(COC(=O)c2ccc3c(c2)C(=O)N(CCCN2CCOCC2)C3=O)cc1 | -3 | -29% | -5% | -1.3% | 7% | -1.2 | -4
COc1cc2[nH]c(=S)nc(NCCCOC(C)C)c2cc1OC | -39 | -5% | 19% | -3.7% | -20% | 6.8 | 20
O=C1CSC(c2c(F)cccc2Cl)N1c1cccc(F)c1 (stereo not given) | -19 | 1% | -14% | -4.0% | -12% | 6.0 | 0
COc1ccc(/C=C/C(=O)Oc2ccc(C=O)cc2OC)cc1 | -3 | 6%[15.4 µM] | 1% | -12% | nt | nt | nt
CC(C)Sc1nc2sc(-c3ccccc3)cc2c(=O)n1N | -12 | 8% | 2% | -10.0% | 13% | -0.7 | nt
CCn1c(SC(C)C(=O)Nc2nnc(C)s2)nnc1-c1ccco1 (stereo not given) | -6 | 12%[15.4 µM] | -24% | nt | 6% | 3.1 | -1
COc1cccc(-c2csc(N3CCN(S(=O)(=O)c4ccc(F)cc4)CC3)n2)c1 | -6 | 6% | 3% | -0.5% | -14% | 3.4 | 4
CCSC(=S)Nc1c(C)n(C)n(-c2ccccc2)c1=O | 3 | 22% | 6% | nt | -2% | -5.3 | 3
CCN(CC(=O)Nc1c(F)cccc1F)C(=O)c1ccc2c(=O)n3c(nc2c1)CCC3 | -12 | -8% | 5% | -23% | nt | nt | 6
CCOC(=O)CN1C(=O)COc2ccc(Cl)cc21 | 0 | 1% | -34% | -0.3% | 3% | 2.5 | -1
CCOc1cc(/C=N\O)cc(Cl)c1OCC | 3 | -15% | -7% | -2.8% | 28% | -2.4 | -10
NC(=O)c1cc(S(=O)(=O)Nc2cccc(Cl)c2)cs1 | 1 | 0% | 5% | nt | 8% | 0.5 | 13
Cc1nc(C)c(C(=O)OCC(=O)Nc2cccc(C)c2C)s1 | -10 | -44%[inhibitor] | -14% | 0.9% | nt | nt | -3
CCCc1cc(=O)[nH]c2nnc(SCC(=O)Nc3cc(C)on3)n12 | -2 | -5%[15.4 µM] | 11% | nt | nt | nt | 14
CCOC(=O)NC(=O)/C(C#N)=N\Nc1cccc(Cl)c1 | -2 | 3%[15.4 µM] | ? | nt | 12% | 0.5 | -9
O=C(CCC1CCCN(C(=O)c2ccoc2)C1)NCc1ccccc1F (stereo not given) | -4 | -43% | 12% | nt | 13% | -3.7 | 3
Cn1c(SC2CCCCC2=O)nnc1-c1ccccc1F (stereo not given) | -6 | -1%[15.4 µM] | nt | nt | -16% | -1.4 | 3

A section from the list above, as a working copy:
SMILES | D2 PAM | gsp ag | gsp antagonist | ClpP mod | Sfp inh | Menin MLL FP FL | TRPV1 potentiator
CCCc1cc(=O)[nH]c2nnc(SCC(=O)Nc3cc(C)on3)n12 | -2 | -5%[15.4 µM] | 11% | nt | nt | nt | 14
CCOC(=O)NC(=O)/C(C#N)=N\Nc1cccc(Cl)c1 | -2 | 3%[15.4 µM] | ? | nt | 12% | 0.5 | -9
O=C(CCC1CCCN(C(=O)c2ccoc2)C1)NCc1ccccc1F (stereo not given) | -4 | -43% | 12% | nt | 13% | -3.7 | 3
Cn1c(SC2CCCCC2=O)nnc1-c1ccccc1F (stereo not given) | -6 | -1%[15.4 µM] | nt | nt | -16% | -1.4 | 3

Other records follow.
SMILES | D2 PAM | gsp ag | gsp antagonist | ClpP mod | Sfp inh | Menin MLL FP FL | TRPV1 potentiator
CN(CC(=O)Nc1ccc(F)c(F)c1F)C(=O)C1CSC2(C)CCC(=O)N12 (stereo not given) | -1 | 0% | 6% | -0.6% | nt | nt | 5
CC1CN(C)CCC1OC(=O)c1ccccc1 (stereo not given) | -4 | 2% | -13% | -0.8% | 1% | -0.5 | 3
COCCN1C(=O)N[C@@H](c2cccs2)C(C(C)=O)=C1C | -2 | 25% | 4% | -0.1% | 12% | -0.8[11.7 µM] | nt
COc1ccc(NC(=O)c2sc3nc(Cc4ccccc4)cc(C(F)(F)F)c3c2N)cc1OC | -7 | -40%[inhibitor] | 8% | -2.5% | -21% | nt | 3
O=C(Nc1cccc(Cl)c1)N(Cc1nc2ccccc2c(=O)[nH]1)Cc1cccs1 | -29 | 13% | -5% | 0.4% | -8% | 3.8 | 3
Cc1cnn(C(=O)c2oc3ccccc3c2C)c1 | -2 | 3% | 4% | -9.4% | 18% | 2.5 | -5
O=C(NCc1ccc2c(c1)OCO2)C1CCCN(S(=O)(=O)c2cccs2)C1 (stereo not given) | -5 | 3% | 2% | 0.5% | -3% | -0.1 | 13
COc1ccc(OCC(=O)Nc2nnc(C)s2)cc1 | -5 | -34% | -10% | 1.0% | -3% | -5.2 | 0
COc1ccc(C(=O)Nc2ccc(C(=O)NCC3CCCO3)cc2)c(OC)c1OC (stereo not given) | -5 | -10%[15.4 µM] | 1% | 6.6% | 13% | -6.8 | -1
Cc1cc(Nc2ccc(O)cc2)n2c(nc3ccccc32)c1C#N | 3 | 27% | -4% | nt | 9% | 1.0 | 4
Cc1ccccc1-n1ccnc1SCC(=O)NCC1CCCO1 (stereo not given) | 0 | 30% | 8% | -1.2% | 2% | nt | 7
CSc1ccc(C2=CC(=O)C[C@H](c3ccc(Cl)cc3)C2)cc1 | -7 | -42%[inhibitor] | -4% | -21% | nt | nt | -5
OCCOCCn1c(C2CCCN2c2nc(-c3ccc(F)cc3)cs2)nc2cc(C(F)(F)F)ccc21 (stereo not given) | -13 | -9% | -16% | -0.2% | nt | nt | nt

Three compounds from above, arranged by heavy-atom count, descending.
SMILES | D2 PAM | gsp ag | gsp antagonist | ClpP mod | Sfp inh | Menin MLL FP FL | TRPV1 potentiator
O=C(Nc1cccc(Cl)c1)N(Cc1nc2ccccc2c(=O)[nH]1)Cc1cccs1 | -29 | 13% | -5% | 0.4% | -8% | 3.8 | 3
Cc1cc(Nc2ccc(O)cc2)n2c(nc3ccccc32)c1C#N | 3 | 27% | -4% | nt | 9% | 1.0 | 4
COc1ccc(OCC(=O)Nc2nnc(C)s2)cc1 | -5 | -34% | -10% | 1.0% | -3% | -5.2 | 0
